PrP UTR inh: suppresses PrP 5' UTR mRNA reporter expression; 340,000 compounds, 0.35% hits; cell-based PrP 5' UTR mRNA reporter, plate reader; inhibition, % (concentration not given with the values);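 active = every replicate at 50% or more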;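 also: 0 = median of the neutral control wells; tested in H4 reporter cells; numbers are from one replicate; inactives centre near -14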
Autofluor counter: flagged as autofluorescent in microsphere protease counterscreen. compound autofluorescence counterscreen, microsphere flow cytometry; stronger effect = higher value. fluorescence intensity (concentration not given with the values). 360,000 compounds, 3.1% hits. AID 624483;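 active = at least 3 SD above the mean of all compounds, about 16000 in these data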;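 also: 100 nL of 1 mM stock went into each well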
Sa RN4220 lethal: S. aureus RN4220 growth inhibition; OD600, 16 h; inhibition, % (test concentration not listed); AID 1259311; 330,000 compounds, 0.33% hits;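 active = z-score of -3 or lower and OD600 up to 0.18 on both plates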;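 also: plate controls were untreated cells for no effect and reference antibiotic for full effect; stock transfer was 100 nL into about 80 µL; one replicate is shown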
BJeLR viability: kills HRASV12-expressing BJeLR cells | 300,000 compounds, 0.17% hits | inhibition, % (test concentration not listed) | BJeLR (HRASV12) viability, CellTiter-Glo ATP luminescence, 48 h; reference of the scale not given here;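 active = replicate mean above 50%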;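 also: 50 nL library stock added to about 25 µL; numbers are from one replicate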
Mtb hypoxia inh: reduces hypoxia-regulated biosensor signal in M. tuberculosis; M. tuberculosis hypoxia-regulated fluorescent reporter, fluorescence; fluorescence inhibition, % (no concentration beside the values); 300,000 compounds, 0.1% hits;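 active = 35 to 45% if threefold the growth effect, above 45% if 1.5-fold the growth effect; inactive = the rest, general growth blockers included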;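 also: wells of about 50 µL received 100 nL stock; 0% = vehicle wells and 100% = reference inhibitor wells; whole bacteria with a GFP reporter of the hypoxia response; strong numbers were not always called active; many hits fall short of the cut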
Sa ugtP lethal: kills S. aureus RN4220 lacking UgtP | S. aureus RN4220 ugtP deletion, OD600 growth, 16 h; some inactives read as strong as hits | growth inhibition, % (no concentration beside the values) | 330,000 compounds, 0.54% hits;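 active = z-score under -3 and OD600 up to 0.15 on both plates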;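 also: plate controls were untreated wells for no effect and antibiotic for full effect; wells of about 80 µL received 100 nL stock; the first replicate is given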
Mtb hypoxia inh growth: recorded beside Mtb hypoxia inh, whose call it bears; growth inhibition, %; measured here: M. tuberculosis growth (absorbance);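 0% = vehicle and 100% = reference antibiotic; read after six days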
* = called active by the depositor; / = no result given.

SMILES | PrP UTR inh | Autofluor counter | Sa RN4220 lethal | BJeLR viability | Mtb hypoxia inh | Mtb hypoxia inh growth | Sa ugtP lethal
Cn1c(SCc2ccc(F)cc2Cl)nc2ccccc2c1=O | -10 | 2626 | 2.9 | / | -4 | -4 | -9
O=C(Nc1ccc(NC(=O)C2CC2)nc1)c1cccs1 | -24 | 3220 | -0.9 | 10 | / | / | -2
C=CCNc1cc(C)oc(=O)c1C(=O)CCC | -5 | 12598 | 3.9 | 1 | 7 | 3 | -1
Oc1ccc(C=NNc2cc(N3CCCC3)nc(N3CCCC3)n2)cc1O | / | / | 7.6 | / | 13 | 1 | -10
CCN(CC)C1=N/C(=C\c2ccc(OC)cc2)C(=O)N1c1ccccc1 | 27 | 2216 | 2.2 | 7 | 8 | -4 | 27
O=C(Cc1ccc(Cl)cc1)NNC(=O)Nc1cccc2ccccc12 | -26 | 4622 | -0.7 | 4 | / | / | -4
CC(C)(C)C(=O)Nc1ccc(C(=O)NCc2cccnc2)cc1 | -10 | 2835 | -21 | 3 | 23 | -18 | -5
O=C(c1cnn(Cc2ccccc2)c1)N1CCN(S(=O)(=O)/C=C/c2ccccc2)CC1 | -4 | 4041 | -0.3 | / | -8 | 12 | -3
O=C(COC(=O)c1cccnc1Cl)NC1CCCCCC1 | -15 | 3989 | -0.3 | / | 2 | 15 | -1
Cc1ccc(NCC(=O)NN=Cc2ccc[nH]2)cc1 | / | / | 2.8 | / | 13 | 6 | 0
CCSc1nnc(NC(=O)COc2ccc(Cl)cc2)s1 | -64 | 4067 | 1.9 | -1 | -3 | 8 | -2
C[C@]12CCC(O)CC1CCC1C2CC(O)[C@]2(C)C(C3=CC(=O)OC3)CC[C@]12O (stereo partly specified) | / | / | 4.0 | / | 4 | 13 | 6
CCn1c(CNc2ccc(F)cc2)nnc1SCC#N | -8 | 2009 | 1.2 | -1 | 4 | -2 | 2
O=C(CSc1nc(-c2ccccc2Cl)ns1)NCc1ccco1 | -11 | 10245 | -0.1 | 20 | -4 | 2 | 0
COc1cc(NC(=O)CCc2c(C)nc3nc(C)nn3c2C)cc(OC)c1 | -10 | 8641 | 3.7 | -7 | 6 | 1 | 4
Cc1cc(C)cc(OCC(=O)N/N=C\c2cn(C)nc2C)c1 | -24 | 8495 | / | -6 | / | / | /
CCOC(=O)C1CCCN(c2c(Nc3ccc(OCC)cc3)c(=O)c2=O)C1 (stereo unspecified) | -21 | 5949 | 4.6 | 12 | 9 | 4 | 5
O=C(c1ccccc1)C1CCN(CC(=O)N2CCN(c3ccccc3)CC2)CC1 | -31 | 4386 | 3.0 | -1 | 6 | 11 | 7
O=C(Nc1ccccc1)Nc1ccc(Oc2ncnc3cc(Cl)ccc23)nc1 | / | / | 3.0 | 0 | 8 | -1 | -2
CC(=O)N1CCCc2ccc(NS(=O)(=O)c3ccccc3)cc21 | -4 | 4006 | 3.6 | -11 | 8 | 5 | 12
COC(=O)c1nnn(-c2nonc2N)c1CSc1ccccn1 | -6 | 4615 | -1.8 | -2 | / | / | -3
O=C1CCC(NC(=O)c2ccccc2)C(=O)N1 (stereo unspecified) | -1 | 3943 | 1.6 | -2 | 9 | 5 | 1
CCCC(NC(=O)c1ccco1)c1nc2ccccc2[nH]1 (stereo unspecified) | -7 | 7959 | 8.0 | 3 | 6 | -1 | 21
OCCN(CCO)CC(O)CN(c1ccccc1)c1ccccc1 (stereo unspecified) | 0 | / | 1.9 | -1 | 13 | 5 | 1
Nc1cc(C(=O)OCC(=O)NNC(=O)c2ccccc2F)ccc1Cl | -33 | 3799 | 1.4 | / | 12 | 8 | -3

(continued)
SMILES | PrP UTR inh | Autofluor counter | Sa RN4220 lethal | BJeLR viability | Mtb hypoxia inh | Mtb hypoxia inh growth | Sa ugtP lethal
COc1ccc(NC(=O)CSc2nnc(N)n2CC(=O)Nc2ccc(OC)cc2)cc1 | -15 | 3808 | 0.8 | / | 8 | 1 | 4
Cc1ccc(NC(=O)c2sc(N)nc2C)cc1 | -37 | 3735 | 3.8 | 9 | 0 | -2 | 12
CCCN(CCC)S(=O)(=O)c1ccc(C(=O)NNC(=O)c2cc(OC)c(OC)c(OC)c2)cc1 | -10 | / | 2.7 | -2 | 11 | 1 | 12
CCN(Cc1ccncc1)C(=O)c1cc(COc2c(F)cccc2F)on1 | -7 | 4086 | 5.2 | 8 | -3 | -9 | 9
CCOC(=O)CNC(=S)N(Cc1ccccc1)Cc1cccnc1 | -22 | 3212 | 12 | 0 | 2 | 14 | 3
CCc1ccc(NC(=O)CCc2c(C)nn(-c3ccc(N4CCOCC4)nn3)c2C)cc1 | -6 | 4488 | 1.4 | 5 | 4 | 1 | 8
O=C(c1coc2ccccc2c1=O)N1CCN(c2cccc(C(F)(F)F)c2)CC1 | 1 | 9189 | -1.2 | -9 | 12 | 11 | 5
C=C(C)COc1ccc(-c2[nH]ncc2-c2ccccc2OC)c(O)c1 | -18 | 3568 | -15 | 5 | / | / | 23
COc1ccc(NC(=O)c2ccccc2[N+](=O)[O-])cc1 | -23 | 10266 | -2.4 | 2 | -1 | -1 | 0
COc1ccccc1/C=C/C(=O)NCC(=O)NN=Cc1ccc(C(=O)O)cc1 | / | / | 2.6 | / | -4 | -1 | 7
CNC(=S)N/N=C(\C)c1cccc(C(F)(F)F)c1 | -14 | 4615 | / | -5 | / | / | /
Cc1ccc(NC(=O)c2cc(C)n(-c3ccccc3)c2C)cc1 | -20 | 2363 | -8.8 | 11 | 19 | 9 | 21
CCn1c(=O)c(C(=O)NNC(=O)c2ccc(Cl)cc2Cl)c(O)c2ccccc21 | -3 | 6141 | 46 | -1 | 0 | 2 | 18
Cc1cc(OCC(=O)Nc2ccccn2)c2c(C)c(C)c(=O)oc2c1 | -3 | 6171 | -3.6 | 1 | -7 | 1 | 10
NC(=O)c1ccc(C(F)(F)F)n(Cc2ccccc2Cl)c1=O | -8 | 15581 | 4.5 | -9 | 5 | 6 | -7
CCc1nnc(NC(=O)CN2CCN(c3cccc(OC)c3)CC2)s1 | -28 | 2485 | 1.1 | -3 | / | / | 3
C=C(C)CSc1nc2ccccc2c(=O)n1-c1c(C)n(C)n(-c2ccccc2)c1=O | -30 | 3950 | -5.1 | -18 | 5 | -1 | 15
O=C(COc1ccc(S(=O)(=O)N2CCCCC2)cc1)NC1CCCCC1 | -5 | 4432 | 8.0 | -6 | / | / | 9
CN(CC(=O)Nc1cccc(F)c1)C(=O)c1csc2c1CCCC2 | -20 | 5458 | 4.1 | 6 | -11 | 12 | -1
O=C1CN(C(=O)CSc2nc(-c3ccc(Cl)cc3)cs2)c2ccccc2N1 | -9 | 2506 | / | 6 | / | / | /
CCOC(=O)C1(CCc2ccccc2)CCN(C(=O)CCc2cnccn2)CC1 | -17 | 4459 | 4.8 | 17 | 17 | 1 | 2
CCNC(=O)c1cc(Br)ccc1Cl | -9 | 16959* | -0.4 | 0 | 0 | -6 | -4
O=C(NCc1ccccc1)C1=C[C@H](c2ccc(C(F)(F)F)cc2)C[C@H](OCc2ccc(CO)cc2)O1 | -12 | 3607 | / | 11 | / | / | /
O=C(Nc1ccc([N+](=O)[O-])cc1)c1ccc(Cn2cc([N+](=O)[O-])cn2)cc1 | -3 | 2293 | / | -7 | / | / | /
O=C(CSc1ncn[nH]1)NN=Cc1ccc(Br)cc1 | / | / | 0.5 | / | 8 | -5 | -9

Remaining list, next part
SMILES | PrP UTR inh | Autofluor counter | Sa RN4220 lethal | BJeLR viability | Mtb hypoxia inh | Mtb hypoxia inh growth | Sa ugtP lethal
Cc1ccc(NC(=O)Cc2c(Cl)cccc2Cl)cc1S(=O)(=O)N(C)C | -7 | 2363 | 25 | 6 | -1 | 5 | 2
CC(C)N(C(=O)[C@H]1C[C@H](CC(=O)NCc2cccc(C(F)(F)F)c2)C(=O)N2CCc3c([nH]c4ccc(Cl)cc34)[C@]12C)C(C)C | -19 | 3270 | 0.6 | / | -8 | 3 | -30
COc1ccc(CN(C)C(=O)Cc2c[nH]c3ccccc23)cc1 | -21 | 3965 | 5.9 | 1 | 9 | 1 | 10
O=C(/C=C/c1cccs1)c1ccc(NC(=O)c2ccccc2F)cc1 | -42 | 7644 | 3.3 | -1 | 11 | 7 | -6
CCOC(=O)C1CCCNC1=O (stereo unspecified) | -15 | 4683 | 1.9 | -1 | 19 | 9 | 4
COc1cccc2c(=O)n(CC(=O)N3CCCCCC3)ccc12 | -15 | 5139 | -15 | 4 | 6 | 5 | -11
O=C(NC(=S)NNC(=O)c1ccccc1O)c1ccco1 | -11 | 9929 | 36 | 3 | 9 | -9 | 4
CC(C)NC(=O)c1cc(=O)n(C)c(=O)n1C | -16 | 11205 | 5.0 | 2 | 3 | -1 | 0
CCCN1CN=C(Nc2nc3ccccc3o2)NC1 | -53 | 4402 | 4.4 | -12 | 9 | 15 | 2
COc1ccc(C(=O)OCC(=O)NCCc2ccc(F)cc2)cc1S(=O)(=O)N1CCOCC1 | -13 | 3345 | 4.9 | / | 8 | 2 | 6
O=C(NN=Cc1ccc(-c2ccc(Cl)c(Cl)c2)o1)C(=O)N1CCCC1 | / | / | 2.7 | / | 6 | 4 | -5
COc1ccc(N(CC(=O)Nc2cccc(C(F)(F)F)c2)S(C)(=O)=O)cc1 | -19 | 6062 | -0.1 | -1 | -8 | -3 | -9
Nn1c(SCc2ccc([N+](=O)[O-])cc2)nc2ccccc2c1=O | -20 | 3013 | 2.2 | -1 | 22 | -1 | 4
Cc1ccc(C(=O)OCC(=O)Nc2nc(-c3ccccc3)cs2)cc1NC(=O)c1ccco1 | -11 | 3427 | -1.9 | 6 | 13 | 3 | 4
COc1ccc(OC)c(NC(=O)C2CCN(Cc3cnn(-c4ccccc4)c3-n3cccc3)CC2)c1 | -14 | 20746* | 0.6 | -2 | 3 | 16 | -4
O=C(COC(=O)/C=C/c1ccc(OC(F)F)cc1)Nc1ccc2[nH]c(=O)[nH]c2c1 | 9 | 4222 | 3.3 | / | -2 | 4 | -1
CCOC(Cn1ccc(=O)[nH]c1=O)OCC | -23 | 5821 | -3.3 | 7 | -6 | -10 | -3
COc1ccc(C(=O)Nc2cccc(-c3cnc4ccccc4n3)c2)cc1 | -12 | 3161 | 1.8 | -2 | / | / | -6
COCCNC(=O)C(c1cccs1)N(C(=O)Cn1nnc2ccccc21)c1ccc2c(c1)OCO2 (stereo unspecified) | -2 | 3066 | 3.6 | -6 | / | / | 2
CCCCOc1ccc(C(=O)NCC(=O)N2CC(C)CC(C)C2)cc1 (stereo unspecified) | -8 | 4156 | 0.7 | / | 4 | 11 | 7
COc1cccc(CN2CCN(c3ccc(F)cc3)C2=O)c1 | -30 | 4269 | 4.5 | -4 | 6 | 4 | 5
O=C(O)CCSc1ncnc2sc(-c3ccccc3)cc12 | 40 | 4897 | 13 | 11 | 8 | 3 | 7

An excerpt of these results, with values under each structure:
Under each structure: PrP UTR inh	Autofluor counter	Sa RN4220 lethal	BJeLR viability	Mtb hypoxia inh	Mtb hypoxia inh growth	Sa ugtP lethal
- COc1ccc(N(CC(=O)Nc2cccc(C(F)(F)F)c2)S(C)(=O)=O)cc1
    -19	6062	-0.1	-1	-8	-3	-9
- Nn1c(SCc2ccc([N+](=O)[O-])cc2)nc2ccccc2c1=O
    -20	3013	2.2	-1	22	-1	4
- Cc1ccc(C(=O)OCC(=O)Nc2nc(-c3ccccc3)cs2)cc1NC(=O)c1ccco1
    -11	3427	-1.9	6	13	3	4
- COc1ccc(OC)c(NC(=O)C2CCN(Cc3cnn(-c4ccccc4)c3-n3cccc3)CC2)c1
    -14	20746*	0.6	-2	3	16	-4
- O=C(COC(=O)/C=C/c1ccc(OC(F)F)cc1)Nc1ccc2[nH]c(=O)[nH]c2c1
    9	4222	3.3	/	-2	4	-1
- CCOC(Cn1ccc(=O)[nH]c1=O)OCC
    -23	5821	-3.3	7	-6	-10	-3
- COc1ccc(C(=O)Nc2cccc(-c3cnc4ccccc4n3)c2)cc1
    -12	3161	1.8	-2	/	/	-6
- COCCNC(=O)C(c1cccs1)N(C(=O)Cn1nnc2ccccc21)c1ccc2c(c1)OCO2 (stereo unspecified)
    -2	3066	3.6	-6	/	/	2
- CCCCOc1ccc(C(=O)NCC(=O)N2CC(C)CC(C)C2)cc1 (stereo unspecified)
    -8	4156	0.7	/	4	11	7
- COc1cccc(CN2CCN(c3ccc(F)cc3)C2=O)c1
    -30	4269	4.5	-4	6	4	5
- O=C(O)CCSc1ncnc2sc(-c3ccccc3)cc12
    40	4897	13	11	8	3	7
